# liver stage = exo-erythrocytic parasite development inhibition – imaging, Malaria Box, P. yoelii, HepG2-A16-CD81EGFP, dose response (AID 602156). P. yoelii liver stage in HepG2-A16-CD81EGFP, imaging; first-round cut-off not given here. calls after a first round at 10 µM; hits with a dose series show IC50 in µM. actives 4.8% (n = 5,700); in the data active = a potency from the dose series;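 note: infected cells exposed to compound for 48 hours before fixation; stained parasite area by imaging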
# * = called active by the depositor; i = inactive. An excerpt; the hit share may differ from the screen's.
SMILES,liver stage
O=C(/C=C\c1ccccc1)Nc1ccc2[nH]c(-c3ccc(NC(=O)/C=C/c4ccccc4)cc3)nc2c1,i
COc1ccc(/C=C/c2ccc3ccccc3[n+]2C)cc1,i
C[n+]1c(C=CNc2ccccc2)n(-c2ccccc2)c2ccc(Cl)cc21,i
Oc1c(CN2CCCCC2)ccc2ccccc12,i
CC1(C)CC(=O)c2cc(-c3ccc(Br)cc3)n(-c3ccccc3F)c2C1,i
CCCCCC(=O)NCCCCCCNc1ccnc2cc(Cl)ccc12,i
O=C(C=Cc1ccc(Br)cc1)NC(=O)c1ccccc1O,i
C=C(C)CSc1nc(N)c2c3c(sc2n1)CN(CCC)CC3,i
Nc1nc(N)nc(C(c2ccccc2)c2ccccc2)n1,i
CCOC(=O)c1cnc2c(OC)cccc2c1Nc1ccc(OC)c(OC)c1,i
Cc1ccc(NC(=O)C2C3C=CC4(O3)C2C(=O)N(CCCN2CCOCC2)C4C(=O)NC2CCCC(C)C2C)cc1Cl (centres undefined),i
O=C1CSC2=NCN(c3cccc(Cl)c3)CN12,i
CCCCCN(C(=O)Nc1ccccc1OC)C(C)c1nc2ccccc2c(=O)n1-c1ccccc1OCC (centres undefined),i
CCCC(C)C(C(=O)NCc1ccccc1)N1C(=O)c2cc(NC(C)=O)ccc2NC(=O)[C@@H]1c1ccccc1 (some centres undefined),i
O=C(Nc1ccc(N2CCCCC2)cc1)N1CCc2[nH]cnc2C1c1ccc(Cl)cc1 (centres undefined),i
c1ccc2c(c1)ccc1cc3cccc[n+]3cc12,i
Cc1ccc(C(=O)c2c(C)oc3ccc(O)cc23)cc1,i
CCOC(=O)c1ccc2c(c1)n(CC)c(/C=C/N(C)c1ccccc1)[n+]2CC,i
CC(C)NCC(O)Cn1c2ccc(Br)cc2c2cc(Br)ccc21 (centres undefined),i
COC(=O)[C@@H]1C[C@@H](NC(=O)c2ccc(C)cc2)CN1Cc1ccc(OC)c(C)c1OC,i
CCC(=O)Oc1ccccc1-c1nc2ccccn2c1NC(C)(C)CC(C)(C)C,i
CCC(=Cc1sc2ccc3ccccc3c2[n+]1C)C=C1Sc2ccc3ccccc3c2N1C,i
CCOC(=O)C1=C(O)C(=Cc2cc(C)n(-c3ccc(C)cc3)c2C)N=C1C,i
COc1ccccc1-n1c(C(C)N2CCN(C(=O)c3cc([N+](=O)[O-])cc([N+](=O)[O-])c3)C(C)C2)nc2ccccc2c1=O (centres undefined),i
CC[n+]1c(C=Cc2ccc(OC)cc2)ccc2ccccc21,i
CCC(C(=O)Oc1ccccc1-c1nc2ccccn2c1NC(C)(C)CC(C)(C)C)c1ccccc1 (centres undefined),i
COC(=O)c1sc2nc(CN(C)Cc3nccs3)ccc2c1NC(=O)c1ccc(C)s1,i
COc1ccc(C2CC(=O)C3=C(C2)NC(C)=C(C(=O)OC(C)C)C3c2ccccc2Cl)cc1OC (centres undefined),i
Cc1cc(C)c(S(=O)(=O)N2CCCC2CNC(=O)c2cccc([N+](=O)[O-])c2)c(C)c1 (centres undefined),i
CCOC(=O)C1=C(c2ccccc2)N=c2sc(=Cc3c(C)n(Cc4ccc(F)cc4)c4ccccc34)c(=O)n2C1c1cccc(OC)c1OC (centres undefined),i
O=C(NCSC1=NCCS1)c1ccccc1,i
O=C(CN1CCN(S(=O)(=O)c2cccc([N+](=O)[O-])c2)CC1)Nc1ccc(OCc2ccccc2)cc1,i
COCC(=O)N(C)CCCNc1ccnc2cc(Cl)ccc12,i
CC(=O)N/C(=C\c1ccc(OC(F)F)cc1)C(=O)O,i
COc1ccc2ccc(OC)c(C3C(C#N)=C(N)OC4=C3C(=O)CC(C)(C)C4)c2c1 (centres undefined),i
CC[n+]1c(C=CN2CCCc3ccccc32)ccc2ccccc21,i
CCCCCc1c(C)c(C#N)c2nc3ccccc3n2c1NCCN(CC)CC,0.7µM*
CC(C)(C)CC(C)(C)Nc1c(-c2ccccc2OC(=O)c2ccc(Br)cc2)nc2ccccn12,i
COc1cc(OC)cc(C(=O)NCc2n[nH]c(=S)n2-c2ccc(Br)cc2)c1,i
Cc1ccccc1Cc1c(C)nc2c(C#N)c(C)nn2c1C,i
c1ccc(CCc2nc3cccnc3n2C2CCN(C3CCN(Cc4ccccc4)CC3)CC2)cc1,i
CCOC(=O)c1cccc(NC(=O)CC2C(=O)N(c3ccc(F)cc3)C(=O)N2CCC(C)C)c1 (centres undefined),i
COc1ccc2c(c1)C=CC(=Cc1cccc[n+]1C)N2C,i
CN(CCCNc1ccnc2cc(Cl)ccc12)C(=O)C1CC1,i
N=c1c2c(n(CCc3ccccc3)c3c1CCC3)CCCC2,i
Cc1cc(C)nc(Nc2nc(C)c3cc(C)c(C)cc3n2)n1,i
O=C(Cc1ccsc1)NC1CCN(CC(O)CN(Cc2ccccc2)S(=O)(=O)c2ccccc2)C1 (centres undefined),i
COc1ccccc1C(=O)ON=C(N)Cc1cccc2ccccc12,i
Cc1cccc(OCC(=O)Nc2cccc(NC(=O)COc3cccc(C)c3)n2)c1,i
CCSc1nc2sc3c(c2c(=O)n1CC)CCN(C)C3,i
COc1ccc(NC(=O)C2c3ccccc3C(=O)N(CC(C)C)C2c2cccs2)cc1OC (centres undefined),i
CC(C)NC(=O)N1CCN(C(=O)C(Cc2c[nH]c3ccccc23)NC(=O)Nc2cccc(Cl)c2Cl)CC1C (centres undefined),i
Oc1ccccc1-c1nc2ncccn2c1Nc1cccc(C(F)(F)F)c1,i
CC1CC(C)CN(C(=O)c2sc3ccccc3c2Cl)C1 (centres undefined),i
CCc1noc(C)c1C(=O)NCCN1Cc2ccccc2OC(c2ccsc2)C1 (centres undefined),i
CC(C)C(=O)N1CCOc2c(cc(-c3csc4ccccc34)cc2OCCc2ccccn2)C1,i
COc1ccc(OC)c(-c2ccc(O)c(CNCCc3ccccc3)c2)c1,i
COC(=O)c1c(-c2c(Cl)cccc2Cl)noc1C=CNc1ccc(Cl)cc1,i
CCOC(=O)c1ccc2c(c1)[C@@H]1C=CC[C@@H]1[C@H](c1ccc(OC)c([N+](=O)[O-])c1)N2,i
COc1cc(OC)cc(C(=O)N2CCN(c3ccccn3)CC2)c1,i

# New compounds follow
SMILES,liver stage
CCOc1cc(-c2nnc3[nH]c(=O)n(C)c(=O)c3n2)ccc1OC(C)C,i
COc1cc2c(cc1OC)C(CCCCCl)=NC(C)(C)C2,i
Oc1ccc(Br)cc1CN1CCN(c2ccccn2)CC1,i
Clc1cccc(CCNC2CCN(CCc3ccccc3)CC2)c1,i
Oc1ccc(-c2ccnc3cc(Cl)ccc23)cc1CNCCN1CCOCC1,i
COc1cccc(CN2CCN(C3CCCC(C)C3)CC2)c1OC (centres undefined),i
C=CCN1/C(=C/C=C/c2sc3ccccc3[n+]2CC=C)Sc2ccccc21,i
COc1ccc(C2CC(=O)C3=C(C2)NC(C)=C(C(=O)OC(C)C)C3c2ccccc2C)cc1OC (centres undefined),i
CC1=C(C(=O)OC(C)C)C(c2ccccc2F)C2=C(CC(c3ccc(Cl)cc3)CC2=O)N1 (centres undefined),i
CC[n+]1c(/C=C2\Sc3ccc(OC)cc3N2C)ccc2cc(C)ccc21,i
CC(=O)N(C1=C(N(C)C)C(=O)c2ccccc2C1=O)c1cccc(O)c1,i
CC[C@@H](C(=O)[C@@H](C)C(O)[C@H](C)CCc1ccc(C)c(O)c1C(=O)O)C1O[C@](CC)(C2CC[C@](O)(CC)[C@H](C)O2)C[C@@H]1C (some centres undefined),i
COc1ccc(C2=Nc3cc(C(=O)NCCN4CCOCC4)ccc3CN2C(C)C)cc1,i
Cc1cc(-c2cnc(C)nc2C2CCN(C(=O)c3ccc4ncccc4c3)CC2)on1,i
CCOC(=O)c1c(C)n(-c2ccccc2)c2ccc(OC(=O)c3ccco3)cc12,i
Cn1c(=O)[nH]c(=O)c2c1nc(N1CCCCCC1)n2CC(O)COc1ccc([N+](=O)[O-])cc1 (centres undefined),i
CCOC(=O)N1CCN(C(=O)c2cnc3ccc(C)cn3c2=O)CC1,i
c1ccc2[nH]c(CN(Cc3nc4ccccc4[nH]3)Cc3nc4ccccc4[nH]3)nc2c1,i
Cc1ccc(C=NNC(=O)c2nnn(-c3nonc3N)c2-c2ccc([N+](=O)[O-])cc2)cc1,i
Cc1cccc(CN2CCC(CNC(=S)Nc3ccc4nc(N5CCN(C)CC5)cc(C)c4c3)CC2)c1,i

# Shown field by field: four of the compounds above.
> Oc1ccc(Br)cc1CN1CCN(c2ccccn2)CC1
  liver stage: i

> CC(=O)N(C1=C(N(C)C)C(=O)c2ccccc2C1=O)c1cccc(O)c1
  liver stage: i

> CCOC(=O)N1CCN(C(=O)c2cnc3ccc(C)cn3c2=O)CC1
  liver stage: i

> COc1ccc(C2CC(=O)C3=C(C2)NC(C)=C(C(=O)OC(C)C)C3c2ccccc2C)cc1OC (centres undefined)
  liver stage: i

# Following part:
SMILES,liver stage
Cc1cc(C)cc(-n2c(C)cc(/C=C3/SC(=Nc4ccc(Br)cc4)NC3=O)c2C)c1,i
CCC(=O)CC(O)C[C@@H](C)C[C@H](NC(=O)[C@@H]1C[C@H](C)CN1C(=O)/C=C/[C@@H](C)CC)C(=O)N[C@H](C(=O)NC(C)(C)C(=O)N[C@@H](CC(C)C)C(=O)N[C@@H](CC(C)C)C(=O)NC(C)(C)C(=O)NC(C)(C)C(=O)NCCC(=O)N[C@@H](C)CN(C)C)[C@H](O)C(C)C (some centres undefined),i
O=C(CCC1CCCC1)NCCCCNc1ccnc2cc(Cl)ccc12,i
COc1ccc(C(NC(=O)c2cccc(OC)c2)c2cc(Cl)c3cccnc3c2O)cc1 (centres undefined),i
CC1=C(C(=O)OC(C)C)C(c2ccc(Br)cc2)C2=C(CC(c3ccc(Cl)cc3)CC2=O)N1 (centres undefined),i
Cc1ccc(-c2c[n+]3c(n2-c2ccc(C)cc2)CCCCC3)cc1,0.15µM*
O=C(Nc1cccnc1)c1cc(-c2cccnc2)nc2ccc(Cl)cc12,i
COc1ccc(C2CC(=O)C3=C(C2)NC(C)=C(C(=O)OC(C)C)C3c2ccccc2Br)cc1 (centres undefined),i
C[n+]1c(C=Cc2ccc(Cl)c(Cl)c2)ccc2ccccc21,i
O=C(NCCCCNc1ccnc2cc(Cl)ccc12)C1CCCC1,i
Fc1ccc(CN2CCc3nc(N4CCCCC4)sc3C2)cc1F,i
CN(CCCNc1ccnc2cc(Cl)ccc12)C(=O)C(Cl)Cl,i
O=C(NCc1ccco1)C1CCN(S(=O)(=O)c2ccc(Cl)cc2)CC1,i
O=C(NN=Cc1ccc(O)c(O)c1)/C(=C/c1ccccc1)NC(=O)c1ccccc1,i
Cc1n(CC(=O)c2ccccc2)c2ccccc2[n+]1C,i
COc1ccc(OC)c(CN2CCC3(CC2)CC3C(=O)NCCc2ccccc2OC)c1 (centres undefined),i
CC(C)(C)NCC(O)Cn1c2ccc(I)cc2c2cc(I)ccc21 (centres undefined),i
Cc1cc(C)cc(NC2=C(N)C(=O)c3ccccc3C2=O)c1,i
COc1cccc2c1C(=O)c1c(O)c3c(c(O)c1C2=O)CC(O)(C(=O)CO)CC3OC1CC(N)C(O)C(C)O1 (centres undefined),i
S=c1[nH]nc(-c2ccncc2)n1CCc1ccccc1,i

# Retrieved by structure from the entries so far (seven):
SMILES,liver stage
C[n+]1c(C=Cc2ccc(Cl)c(Cl)c2)ccc2ccccc21,i
Cc1ccc(-c2c[n+]3c(n2-c2ccc(C)cc2)CCCCC3)cc1,0.15µM*
O=C(CCC1CCCC1)NCCCCNc1ccnc2cc(Cl)ccc12,i
S=c1[nH]nc(-c2ccncc2)n1CCc1ccccc1,i
O=C(NCc1ccco1)C1CCN(S(=O)(=O)c2ccc(Cl)cc2)CC1,i
COc1ccc(C2CC(=O)C3=C(C2)NC(C)=C(C(=O)OC(C)C)C3c2ccccc2Br)cc1 (centres undefined),i
O=C(Nc1cccnc1)c1cc(-c2cccnc2)nc2ccc(Cl)cc12,i

# (more compounds)
SMILES,liver stage
Cc1ccc(-c2cc(-c3cc(Cl)ccc3O)on2)cc1,i
Cc1ccc(C)c(CN2C(=O)c3ccccc3S(=O)(=O)c3ccc(C(=O)NCCCN4CCCC(C)C4)cc32)c1 (centres undefined),i
O=C(CN1CCN(C(=O)c2ccco2)CC1)Nc1ccccc1Br,i
O=C(Nc1cccc(Cl)c1)Nc1cc(C(F)(F)F)cc(C(F)(F)F)c1,i
COc1ccc2cc(CNC3CCN(Cc4ccccc4)CC3)c(=O)[nH]c2c1,i
COC(=O)CC(NS(=O)(=O)c1ccc(OC)cc1)c1ccc2c(c1)OCO2 (centres undefined),i
CC(c1nc2ccc(Cl)cc2c(=O)n1C)N1CCN(S(=O)(=O)c2cccc3ccccc23)CC1 (centres undefined),0.022µM*
O=C(Nc1ccccc1F)NC1CC2CCCC(C1)N2CCc1ccccc1 (centres undefined),i
CCCOC(=O)C1=C(C)NC2=C(C(=O)CC(c3ccc(OC)cc3)C2)C1c1ccccc1F (centres undefined),i
CCOc1ccc(-c2noc(-c3ccncc3)n2)cc1OCC,i
CN1CCN(N=Cc2c(-c3ccccc3)[nH]n(-c3nc4ccccc4s3)c2=O)CC1,i
CN1CCN(C(c2ccco2)c2sc3ncnn3c2O)CC1 (centres undefined),i
Clc1ccccc1-c1nc([P+](c2ccccc2)(c2ccccc2)c2ccccc2)c(N2CCOCC2)o1,0.096µM*
COc1cc(/C=C2/SC(=Nc3ccccc3)NC2=O)ccc1OC(=O)c1ccccc1,i

# High-throughput results deposited in PubChem by GNF / Scripps  Winzeler lab.
